High-throughput results as filed in PubChem.
ID4 SMM – binders of human ID4 protein, primary screen, biochemical, small molecule microarray, single point; DNA-binding protein inhibitor ID-4 (Homo sapiens), P47928; AID 624137, 2012; calls only; actives 1.2% (n = 31,000); Flag-ID4 binding, fluorescence F/B;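 active = spot signal over background at p below 0.07 in all four prints; compounds were printed on slides so no solution concentration is given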;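 also: a binder raises fluorescence above local background on the spot; about 2 pmol printed per array spot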
Target sequence (P47928 whole entry, looked up): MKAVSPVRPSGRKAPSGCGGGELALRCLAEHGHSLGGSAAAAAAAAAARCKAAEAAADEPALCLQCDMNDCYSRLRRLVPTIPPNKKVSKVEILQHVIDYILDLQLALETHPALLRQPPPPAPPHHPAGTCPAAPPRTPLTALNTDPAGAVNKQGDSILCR
STAT3 SMM – STAT3 binders, primary screen, biochemical, small molecule microarray, single point, set 2 | Signal transducer and activator of transcription 3 (Homo sapiens), P40763 | His-STAT3 binding, anti-His fluorescence | calls only | actives 0.2% (n = 17,000) | AID 624138, 2012;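 active = compounds whose four printed spots each show fluorescence over background unusually high for their array block, chance value under 7%; compounds were printed on slides so no solution concentration is given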;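 also: about 2 pmol printed per array spot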
mut p53 SMM – binders of human mutant p53, primary screen, biochemical, small molecule microarray, anti-GST fluorescence; mutant tumor protein p53 (GST-tagged), Homo sapiens; small molecule microarray binding; calls only; actives 0.4% (n = 17,000); AID 624136, 2012;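 active = compounds whose four printed spots each glow above background more than chance allows, each with a p-value under 7%; compounds were printed on slides so no solution concentration is given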;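 also: about 2 pmol printed per array spot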
Myc binder – binders of human c-Myc, primary screen, biochemical, small molecule microarray, anti-His fluorescence. actives 1.5% (n = 17,000). calls only. Myc proto-oncogene protein (Homo sapiens), P01106. His-c-Myc binding;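 active = spot fluorescence over background with P-value below 7% in all four replicate spots, showing protein binding; compounds were printed on slides so no solution concentration is given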;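 also: score is binary with 100 for all four spots passing and 0 otherwise; about 2 pmol printed per array spot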
Target sequence (P01106 whole entry, looked up): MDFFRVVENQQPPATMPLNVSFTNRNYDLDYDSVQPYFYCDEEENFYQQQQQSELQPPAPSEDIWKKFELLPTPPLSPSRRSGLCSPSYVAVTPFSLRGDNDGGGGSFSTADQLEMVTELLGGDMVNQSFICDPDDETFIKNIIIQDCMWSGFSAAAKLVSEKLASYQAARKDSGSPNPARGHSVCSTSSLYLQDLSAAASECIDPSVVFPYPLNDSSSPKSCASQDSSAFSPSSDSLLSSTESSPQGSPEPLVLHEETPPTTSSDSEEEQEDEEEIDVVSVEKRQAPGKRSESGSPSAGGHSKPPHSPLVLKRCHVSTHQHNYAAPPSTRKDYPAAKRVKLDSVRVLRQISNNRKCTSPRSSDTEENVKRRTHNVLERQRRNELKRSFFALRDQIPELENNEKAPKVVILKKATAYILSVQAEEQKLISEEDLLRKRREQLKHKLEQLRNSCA
Calls only; i = inactive; . = no result given; + = active, no number. This is a subset; the hit share may differ from the screen's.

SMILES | ID4 SMM | STAT3 SMM | mut p53 SMM | Myc binder
C[C@@H]1CCCCO[C@H](CN(C)C(=O)c2ccncc2)[C@H](C)CN([C@@H](C)CO)C(=O)c2cc(NS(=O)(=O)c3ccccc3)ccc2O1 | i | i | i | i
C[C@@H]1CN([C@@H](C)CO)C(=O)c2cc(NS(=O)(=O)c3cccs3)ccc2O[C@@H](C)CCCCO[C@@H]1CN(C)Cc1ccccc1 | i | i | i | i
CN(C)Cc1nc(-c2cn(C)c3ccccc23)no1 | i | i | i | i
CSc1nc(N)nc(SCCS(=O)(=O)c2ccc(Cl)cc2)c1C#N | i | i | i | i
C[C@H]1CN([C@@H](C)CO)C(=O)Cc2cc(NS(C)(=O)=O)ccc2O[C@H]1CN(C)C(=O)Nc1ccccc1 | i | i | i | i
C[C@@H]1CCCCO[C@H](CN(C)C(=O)C2CCCCC2)[C@@H](C)CN([C@H](C)CO)C(=O)c2cc(NC(=O)c3ccncc3)ccc2O1 | i | i | i | i
Cn1c(SCC(=O)Nc2ccc(Cl)cc2Cl)nnc1-c1ccc(Cl)cc1 | i | i | i | i
O=C(Nc1ccccc1[N+](=O)[O-])c1cccc(S(=O)(=O)Nc2ccccc2)c1 | i | i | i | i
O=C1C2C=C(I)[C@H](C[C@@H]2OCCCCO)[C@@]12CO2 | i | i | i | i
CC(C)NC(=O)Nc1ccc2c(c1)C(=O)N([C@H](C)CO)C[C@H](C)[C@H](CN(C)C(=O)C1CCCCC1)OCCCC[C@H](C)O2 | i | i | i | i
C[C@@H]1CN([C@@H](C)CO)C(=O)c2cccc(NC(=O)Nc3ccc4c(c3)OCO4)c2O[C@H]1CN(C)S(=O)(=O)c1cccs1 | . | i | i | i
C=C1C(=O)O[C@@H]2[C@H]1[C@H](O)C[C@]1(C)[C@@H](O)CC=C(C)[C@@H]21 | i | i | i | i
Cc1cc2nc(Nc3nc4ccccc4c(=O)[nH]3)nc(C)c2cc1C | i | i | i | i
C[C@@H]1CN([C@@H](C)CO)C(=O)CCCn2cc(nn2)CO[C@@H]1CN(C)Cc1ccc2c(c1)OCO2 | i | i | i | i
C[C@H](CO)N1C[C@H](C)[C@H](CN(C)C)Oc2ccc(NC(=O)c3ccncc3)cc2C1=O | i | i | i | i
C[C@@H]1CN([C@@H](C)CO)C(=O)c2cc(NS(=O)(=O)c3ccccc3)ccc2O[C@H]1CN(C)C(=O)Nc1cccc2ccccc12 | i | i | i | i
C[C@@H]1CCCCO[C@H](CN(C)S(=O)(=O)c2ccccc2)[C@H](C)CN([C@@H](C)CO)C(=O)c2cc(N(C)C)ccc2O1 | i | i | i | i
COc1ccc(NC(=O)Cn2cnc3sc4c(c3c2=O)CCC(C)C4)cc1 (stereo not drawn) | i | i | i | i
COc1ccccc1NC(=O)N(C)C[C@@H]1OCc2cn(nn2)CCCC(=O)N([C@@H](C)CO)C[C@H]1C | i | i | i | i
CNC[C@H]1Oc2ccc(NC(=O)Nc3ccc4c(c3)OCO4)cc2CC(=O)N([C@H](C)CO)C[C@H]1C | i | i | i | i
O=C(N[C@@H](Cc1ccccc1)Cn1cc(CN2C(=O)COC[C@H]2c2ccccc2)nn1)c1ccccc1 | i | i | + | i
COc1ccc(CN(C)C[C@@H]2Oc3c(NS(=O)(=O)c4cccs4)cccc3C(=O)N([C@H](C)CO)C[C@@H]2C)cc1 | i | i | i | i
COc1ccc(NC(=O)N(C)C[C@@H]2OCCCC[C@@H](C)Oc3ccc(NC(=O)Nc4ccccc4)cc3C(=O)N([C@H](C)CO)C[C@H]2C)cc1 | . | i | i | i
Cc1noc(C)c1NC(=O)Nc1cccc2c1O[C@H](CN(C)S(=O)(=O)c1cn(C)cn1)[C@H](C)CN([C@@H](C)CO)C2=O | i | i | i | i
C[C@@H]1CN([C@H](C)CO)C(=O)Cc2cc(NC(=O)Nc3ccccc3)ccc2O[C@H]1CN(C)Cc1ccncc1 | i | i | i | i
O=C(CSc1nnc(-c2cccc3ccccc23)n1-c1ccccc1)NC1CC1 | i | i | i | i
COc1ccc(OC)c(C(C)NC(=O)Nc2cccc(C(C)=O)c2)c1 (stereo not drawn) | i | i | i | i
COc1ccccc1CNC(=O)c1cc(-c2ccncc2)nc2c(Cl)cccc12 | i | i | i | i
COc1ccc(NC(=O)COc2c(Cl)c(C)c(Cl)c(C)c2Cl)cc1[N+](=O)[O-] | i | i | i | i
C[C@@H]1CN([C@@H](C)CO)C(=O)c2cc(N(C)C)ccc2O[C@@H](C)CCCCO[C@@H]1CN(C)S(=O)(=O)c1cn(C)cn1 | i | i | i | i

In the list so far, these contain an aryl thioether with sulfur outside any ring.
SMILES | ID4 SMM | STAT3 SMM | mut p53 SMM | Myc binder
CSc1nc(N)nc(SCCS(=O)(=O)c2ccc(Cl)cc2)c1C#N | i | i | i | i
Cn1c(SCC(=O)Nc2ccc(Cl)cc2Cl)nnc1-c1ccc(Cl)cc1 | i | i | i | i
O=C(CSc1nnc(-c2cccc3ccccc23)n1-c1ccccc1)NC1CC1 | i | i | i | i

Additional structures
SMILES | ID4 SMM | STAT3 SMM | mut p53 SMM | Myc binder
C[C@H](CO)N1C[C@H](C)[C@H](CN(C)C(=O)Nc2ccc3c(c2)OCO3)Oc2ccc(NC(=O)NC3CCCCC3)cc2CC1=O | i | i | i | i
CCCN(C)C[C@@H]1Oc2ncc(-c3ccc(F)cc3)cc2C(=O)N([C@H](C)CO)C[C@@H]1C | i | i | i | i
C[C@@H]1CN([C@H](C)CO)C(=O)Cc2cc(NC(=O)NC3CCCCC3)ccc2O[C@H]1CN(C)S(=O)(=O)c1cccs1 | i | i | i | i
Cc1cc(C(=O)Nc2cccc3c2O[C@H](CN(C)S(=O)(=O)c2cn(C)cn2)[C@@H](C)CN([C@H](C)CO)C3=O)n(C)n1 | i | i | i | i
COc1ccc(-c2noc(CSc3nnc(-c4ccco4)n3-c3ccccc3)n2)cc1OC | i | i | i | i
C[C@@H]1CN([C@@H](C)CO)C(=O)Cc2cc(NS(=O)(=O)c3cn(C)cn3)ccc2O[C@@H]1CN(C)S(=O)(=O)c1cn(C)cn1 | i | i | i | i
C[C@@H]1CCCCO[C@@H](CN(C)C)[C@@H](C)CN([C@H](C)CO)C(=O)c2cc(NC(=O)Nc3cccc4ccccc34)ccc2O1 | i | i | i | i
O=C(O)CCSc1n[nH]c2nc3ccccc3n12 | i | i | i | i
COC(=O)[C@]1(CCS(=O)(=O)c2ccccc2)N=C(c2ccc(OCCCO)cc2)O[C@@H]1c1ccccc1 | i | i | i | i
CC(=O)NCCc1c(C(=O)O)[nH]c2ccc(C(C)=O)cc12 | i | i | i | i
C[C@H](CO)N1C[C@H](C)[C@H](CN(C)Cc2ccccc2)Oc2ccc(NC(=O)NC3CCCCC3)cc2CC1=O | i | i | i | i
CNC[C@@H]1OCCCC[C@H](C)Oc2ccc(NC(=O)c3ccncc3)cc2C(=O)N([C@@H](C)CO)C[C@@H]1C | i | i | i | i
Cc1noc(C)c1S(=O)(=O)Nc1ccc2c(c1)C(=O)N([C@H](C)CO)C[C@H](C)[C@@H](CN(C)C(=O)NC(C)C)OCCCC[C@H](C)O2 | i | i | i | i
CNC[C@@H]1Oc2ccc(NC(=O)CCC(F)(F)F)cc2CC(=O)N([C@@H](C)CO)C[C@H]1C | i | i | i | i
C[C@@H]1CN([C@@H](C)CO)C(=O)c2cc(NC(=O)CCCN(C)C)ccc2O[C@H]1CN(C)S(=O)(=O)c1cccs1 | i | i | i | i
C[C@H]1CN([C@@H](C)CO)C(=O)CCCn2nncc2CO[C@H]1CN(C)C(=O)Nc1ccc(C(C)(C)C)cc1 | i | i | i | i
C[C@@H]1CN([C@@H](C)CO)C(=O)c2cccc(NC(=O)NC3CCCCC3)c2O[C@H]1CN(C)S(=O)(=O)c1cccs1 | i | i | i | i
CNC[C@H]1Oc2ccc(NC(=O)Nc3ccc4c(c3)OCO4)cc2C(=O)N([C@H](C)CO)C[C@H]1C | i | i | i | i
Cc1noc(C)c1NC(=O)N(C)C[C@@H]1Oc2ccc(NC(=O)NC(C)C)cc2CC(=O)N([C@@H](C)CO)C[C@H]1C | i | i | i | i
C[C@@H]1CN([C@H](C)CO)C(=O)c2cccc(N(C)C)c2O[C@@H]1CN(C)Cc1ccccc1 | i | i | i | i
C=CCNC(=O)[C@@H]1[C@H]2C(=O)O[C@H](c3ccccc3)[C@H](c3ccccc3)N2[C@H](c2ccccc2OCCO)[C@@]12C(=O)N(C(=O)OCCOC)c1ccccc12 | i | i | i | i
N#Cc1ccc(NC(=O)CCC(=O)O)cc1 | i | i | i | i
COc1ccc(S(=O)(=O)N(C)C[C@H]2OCCCC[C@H](C)Oc3ccc(NC(=O)Cc4ccccc4)cc3C(=O)N([C@H](C)CO)C[C@H]2C)cc1 | . | i | i | i
O=C(CCc1nc2ccccc2[nH]1)Nc1cccc(C(F)(F)F)c1 | i | i | i | i
C[C@H]1CN([C@@H](C)CO)C(=O)CCCn2cc(nn2)CO[C@@H]1CN(C)S(=O)(=O)c1ccc(C#N)cc1 | i | i | i | i
C[C@H](CO)N1C[C@H](C)[C@H](CN(C)Cc2ccc3c(c2)OCO3)Oc2ccc(N(C)C)cc2C1=O | i | i | i | i
C[C@@H]1CN([C@H](C)CO)C(=O)c2cc(NS(=O)(=O)c3ccccc3)ccc2O[C@H]1CN(C)C(=O)Nc1ccc(C(F)(F)F)cc1 | i | i | i | i
C[C@H](CO)N1C[C@H](C)[C@@H](CN(C)Cc2ccncc2)Oc2ccc(NC(=O)Nc3ccc4c(c3)OCO4)cc2C1=O | i | i | i | i
Nc1c(S(=O)(=O)O)cc(Nc2ccc(Cl)cc2)c2c1C(=O)c1ccccc1C2=O | i | i | i | i
CC(C)NC(=O)N(C)C[C@@H]1Oc2ncc(C#Cc3ccc(C(F)(F)F)cc3)cc2C(=O)N([C@H](C)CO)C[C@@H]1C | i | i | + | +

In the list so far, these contain a COOH group:
SMILES | ID4 SMM | STAT3 SMM | mut p53 SMM | Myc binder
O=C(O)CCSc1n[nH]c2nc3ccccc3n12 | i | i | i | i
CC(=O)NCCc1c(C(=O)O)[nH]c2ccc(C(C)=O)cc12 | i | i | i | i
N#Cc1ccc(NC(=O)CCC(=O)O)cc1 | i | i | i | i

Following part:
SMILES | ID4 SMM | STAT3 SMM | mut p53 SMM | Myc binder
C=CCN1C(=O)[C@@]2(O[C@@H](CCn3cc(CCO)nn3)[C@H]([Si](C)(C)c3ccc(OC)cc3)[C@H]2C)c2cc(N3CCOC3=O)ccc21 | . | i | i | i
C[C@@H]1CN([C@@H](C)CO)C(=O)CCCn2cc(nn2)CO[C@H]1CN(C)Cc1ccccc1 | i | i | i | i
CC(C)NC(=O)N(C)C[C@H]1OCCCC[C@@H](C)Oc2ccc(NC(=O)c3ccncc3)cc2C(=O)N([C@@H](C)CO)C[C@H]1C | i | i | i | i
COc1ccc(NC(=O)CSc2nc(C)cc(C(F)(F)F)n2)c([N+](=O)[O-])c1 | i | i | i | i
Cc1noc(C)c1NC(=O)Nc1cccc2c1O[C@@H](CN(C)Cc1ccc(C(F)(F)F)cc1)[C@H](C)CN([C@@H](C)CO)C2=O | i | i | i | i
Cc1noc(C)c1S(=O)(=O)N(C)C[C@H]1OCCCC[C@@H](C)Oc2ccc(N(C)C)cc2C(=O)N([C@H](C)CO)C[C@@H]1C | i | i | i | i
Cc1nn(C)cc1CNC(=O)c1cnn2c(C(F)F)cc(C3CC3)nc12 | i | i | i | i
C[C@H](CO)N1C[C@H](C)[C@H](CN(C)Cc2ccc(-c3ccccc3)cc2)Oc2c(NC(=O)NC3CCCCC3)cccc2C1=O | . | i | i | i
COC(=O)c1c2oc(c1C(=O)OC)C(=O)N[C@@H](Cc1ccccc1)Cn1cc(nn1)[C@H](Cc1ccccc1)NC(=O)N[C@@H](CO)CC2 | . | i | i | i
C[C@H](CO)N1C[C@H](C)[C@@H](CN(C)S(=O)(=O)c2ccc(F)cc2)Oc2ccc(NC(=O)Cc3cn(C)c4ccccc34)cc2C1=O | . | i | i | i
CC(C)NC(=O)Nc1ccc2c(c1)C(=O)N([C@@H](C)CO)C[C@@H](C)[C@H](CN(C)C(=O)CCCN(C)C)OCCCC[C@@H](C)O2 | i | i | i | i
Cn1c(OCc2cccnc2)nc2c1c(=O)n(Cc1ccc(Cl)c(Cl)c1)c(=O)n2C | i | i | i | i
CC1OC(c2cc3oc(-c4ccccc4)cc(=O)c3c(O)c2O)CC(O)C1O (stereo not drawn) | i | i | i | i
C[C@@H]1CCCCO[C@@H](CN(C)C(=O)Nc2ccccc2)[C@H](C)CN([C@H](C)CO)C(=O)c2cc(NC(=O)CCCN(C)C)ccc2O1 | i | i | i | i
C[C@@H]1CN([C@@H](C)CO)C(=O)c2cc(NS(C)(=O)=O)ccc2O[C@H]1CN(C)C(=O)Nc1ccccc1 | i | i | i | i
